2A StopGo = High Throughput Screening for Foot and Mouth Disease Virus Antivirals | human cells with a luciferase reporter of 2A StopGo recoding; control for the full effect not named in the record | Potency, µM (top dose mostly 57.9 µM), for the others: at the highest dose signal change, negative = less light | actives 1.2% (n = 410,000) | AID 1159524, 2015; active = well fitted falling curve with a large enough effect; inconclusive = small, poorly fitted or top-dose-only effect; inactive = no such curve, though single readings can be large or run the other way; tested in HEK293T cells; further: on the % scale 0 is the no-effect control and ±100 the full control effect; nearly all actives have a fitted effect of over 45% in size; luciferase light after 4 h
LASV entry inh = qHTS for Inhibitors of binding or entry into cells for Lassa Virus | Lassa virus pseudotype entry inhibition, cell reporter; control for the full effect not named in the record | Potency, µM (titrated, usually from 37.9 µM), for the others: top-dose activity change, negative = inhibition, most hits filed as inhibitors | actives 1.2% (n = 300,000); active means well fitted inhibition curve with a large enough effect; inconclusive means small, poorly fitted or top-dose-only effect, or effect the other way; inactive means flat fitted curve, though single readings scatter; tested in HEK293 cells; further: on the % scale 0 is the no-effect control and ±100 the full control effect; nearly all actives have a fitted effect of over 50% in size; luciferase read-out
Cruzain noTriton = qHTS Assay for Promiscuous and Specific Inhibitors of Cruzain (without detergent). Cruzipain (Trypanosoma cruzi), P25779. purified cruzain, Z-FR-AMC fluorescence, no detergent. Potency, µM, for the others: max response, negative = inhibition, actives largely listed as inhibitors. actives 2.3% (n = 200,000). AID 1476, 2009; active means well fitted curve in the direction sought with a large enough effect; inconclusive means small, poorly fitted or top-dose-only effect, or another doubt; inactive means no such curve, though single readings can be large; an effect the other way counts as inactive or inconclusive;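 further: plate controls were enzyme without inhibitor for no effect and buffer without enzyme for full effect; nearly all actives have a fitted effect of over 40% in size; top concentration of the series not given in the record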
Target sequence (P25779 123-467 limits assumed): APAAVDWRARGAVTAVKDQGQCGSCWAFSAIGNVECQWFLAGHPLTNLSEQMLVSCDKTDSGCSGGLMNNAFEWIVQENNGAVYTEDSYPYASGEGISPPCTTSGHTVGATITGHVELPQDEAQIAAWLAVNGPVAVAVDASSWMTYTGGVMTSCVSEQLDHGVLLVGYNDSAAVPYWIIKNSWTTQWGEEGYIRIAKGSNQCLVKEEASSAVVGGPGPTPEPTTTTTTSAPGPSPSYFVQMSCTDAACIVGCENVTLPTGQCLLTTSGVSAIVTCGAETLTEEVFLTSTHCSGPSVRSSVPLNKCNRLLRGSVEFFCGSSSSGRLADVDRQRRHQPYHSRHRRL
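Purified cruzain at 1.5 nM, pre-incubated 15 min with compound at room temperature in 100 mM sodium acetate pH 5.5, 5 mM DTT, 0.00005% Triton X-100. Reaction started with 2 uM Z-FR-AMC; AMC fluorescence increase over 60 s gives rate.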
NS1 function inh = qHTS Assay for Inhibitors of Influenza NS1 Protein Function. S. cerevisiae slowed by influenza A NS1, growth recovery by OD600. Potency, µM (titrated, usually from 46.1 µM), inactives show at the highest dose activity, positive = more growth. actives 0.4% (n = 270,000); further: actives are rising curves; nearly all actives have a fitted effect of over 50% in size
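Recovery from NS1-induced slow growth read by OD600 in budding yeast switched to galactose assay medium (pH 6.0, -URA) at 1:100 dilution. Compound 23 nl per well; the matching strain lacking NS1 serves as control.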
Marburg entry inh = qHTS for inhibitors of binding or entry into cells for Marburg Virus | Marburg virus pseudotyped entry inhibition, cell reporter; control for the full effect not named in the record; about a third of the inactives were read at about 46 µM | Potency, µM (top dose mostly 37.8 µM), for inactives: at the highest dose activity change, negative = inhibition, actives largely listed as inhibitors | actives 1.8% (n = 300,000); active = well fitted inhibition curve with a large enough effect; inconclusive = small, poorly fitted or top-dose-only effect, or effect the other way; inactive = flat fitted curve, though single readings scatter; tested in HEK293 cells; about a fifth of its hits are not listed in these tables; further: on the % scale 0 is the no-effect control and ±100 the full control effect; luciferase read-out
RE007 growth inh = qHTS Assay for Inhibitors of the HIV-1 protein Vpr. actives 0.21% (n = 360,000). S. pombe RE007 Vpr strain, BacTiter-Glo ATP luminescence, 24 h; control for the full effect not named in the record. Potency, µM (series often up to 92.2 µM), for the others: at the highest dose activity change, negative = less growth; active = well fitted falling curve with a large enough effect; inconclusive = small, poorly fitted or top-dose-only effect; inactive = no such curve, though single readings can be large or run the other way;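 further: on the % scale 0 is the no-effect control and ±100 the full control effect; nearly all actives have a fitted effect of over 50% in size; the assay follows cell death caused by Vpr and the record does not say whether a fall means rescue or toxicity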
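Fission yeast RE007 carrying one integrated HIV-1 vpr copy, seeded at OD 0.01 in PMG+AL medium with 23 nL pinned compound. Grown 24 h at 30 degrees; viability read by BacTiter-Glo luminescence after 5 min.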
Cruzain Triton = qHTS Assay for Promiscuous and Specific Inhibitors of Cruzain (with detergent). Cruzipain (Trypanosoma cruzi), P25779. purified cruzain, Z-FR-AMC fluorescence, 0.01% Triton. Potency, µM, for inactives: max response, negative = inhibition, most hits filed as inhibitors. actives 0.43% (n = 200,000). AID 1478, 2009; active means well fitted curve in the direction sought with a large enough effect; inconclusive means small, poorly fitted or top-dose-only effect, or another doubt; inactive means no such curve, though single readings can be large; an effect the other way counts as inactive or inconclusive;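 further: plate controls were neutral wells for no effect and buffer without enzyme for full effect; nearly all actives have a fitted effect of over 40% in size; top concentration of the series not given in the record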
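Compounds were screened in titration against cruzain (1.5 nM) with 0.01% Triton X-100 to counter colloidal aggregation. Activity was the AMC fluorescence increase over 60 s after adding 2 uM Z-FR-AMC at pH 5.5.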
SARS PLP yeast = qHTS of Yeast-based Assay for SARS-CoV PLP. S. cerevisiae expressing SARS-CoV PLpro, growth rescue; control for the full effect not named in the record. Potency, µM (doses to about 32.9 µM), for inactives: top-dose activity, positive = growth rescue. actives 0.19% (n = 330,000); further: 0% is about no effect; nearly all actives have a fitted effect of over 55% in size; growth read by luminescence after 48 h
Active calls of the source: *; ? = inconclusive; / = not tested or not shown; & = joins results of further samples; [ ] = another dose, or the depositor's remark. Unless noted, the call rests on the fitted dose curve; in most records, active means well fitted rising curve with a large enough effect; inconclusive means small, poorly fitted or top-dose-only effect; inactive means no such curve, though single readings can be large or run the other way. Potency means the concentration at half of the fitted maximal effect.

SMILES | 2A StopGo | LASV entry inh | Cruzain noTriton | NS1 function inh | Marburg entry inh | RE007 growth inh | Cruzain Triton | SARS PLP yeast
O=C(O)c1ccccc1N(Cc1ccccc1)C(=O)COc1ccccc1 | -10.3% | / | / | 1.4% | 1.8% | 4.1% | / | 0.4%
S=c1[nH]nc(-c2ccccn2)n1/N=C/c1ccc(Br)s1 | -15.2% | 0.2% | -18.2% | 14.4% | -13.7% | 5.3% | -4.9% | 5.2%
Cc1ccc(Nc2ccc3cc(S(=O)(=O)N4CCC(C)CC4)ccc3n2)c(Cl)c1 | -5.4% | -20.8%[46.1 µM] | -14.9% | / | / | / | -0.5% | /
C=CCOc1c(Cl)cc(CNc2ccc3[nH]c(=O)[nH]c3c2)cc1OC | -5.2% | ? | -3.6% | 0.6% | ? | -2.2% | -2.0% | -1.4%
Cc1nc2sc(C(c3ccc(C(C)C)cc3)N3CCN(CCO)CC3)c(O)n2n1 (stereo not given) | -9.1% | / | ? | -116.0% | / | 5.9% | -1.8% | -2.5%
C=CCc1ccc(OCCCCN2CCC(C)CC2)c(OC)c1 | -11.0% | ? | -10.4% | -9.6% | 14.6µM* | 0.4% | -3.1% | -22.3%
CN(c1ccccc1)S(=O)(=O)c1ccc(Cl)c(C(=O)OCC(=O)NCc2ccco2)c1 | -9.5% | 2.6%[46.1 µM] | / | -4.8% | ? | 13.0% | / | -0.4%
C=C1CCN([C@H](C(=O)NCc2cc(OC)c(OC)c(OC)c2)C(C)C)S(=O)(=O)c2ccccc21 | -12.3% | / | / | 2.7% | / | ? | / | 1.4%
C=CCn1cnc2c(nnn2-c2ccc(C)c(Cl)c2)c1=O | 0.0% | 2.2% | / | -8.2% | -0.6%[46.1 µM] | -7.2% | / | -0.8%
COc1ccc(/C=C/C(=O)NC(=S)NNC(=O)c2cccs2)cc1 | -9.8% | ? | / | / | ? | -9.2% | / | 0.5%
O=C(COC(=O)CCc1nc2ccccc2s1)NCc1ccco1 | -13.2% | ? | / | -2.9% | 12.4%[46.1 µM] | -19.5% | / | 0.0%
Cc1cc([N+](=O)[O-])ccc1NC(=O)c1cncc(Br)c1 | 0.0% | 3.4% | -4.4% | 14.2% | 15.6% | -2.5% | -4.3% | -0.2%
Cc1cc(C)c2[nH]c(O)c(N=Nc3ccc(C(=O)O)cc3)c2c1 | -0.2% | 18.6%[46.1 µM] | / | -13.1% | ? | -10.6% | / | 1.2%
O=C(Cn1cccc1C(=O)c1ccccc1)NCc1ccccc1Cl | 43.8%&31.4%[activator] | 4.6%&19.2%[46.1 µM] | -2.5% | -8.6% | -2.2%&19.6%[46.1 µM] | 10.7% | -3.5% | 10.6%
CCOc1ccc(NC(=O)C[n+]2ccccc2)cc1 | -10.0% | 7.1% | -7.8% | -1.0% | ? | / | 1.4% | 0.0%
CC(=O)N1CCC(N(C(=O)Nc2ccc(C)c(F)c2)C(C)C)CC1 | 34.4%[activator] | 9.3%[46.1 µM] | 2.9% | / | -6.9%[46.1 µM] | / | -3.2% | /
COc1cccc(C2=CC(c3cccc(OC)c3OC(F)F)n3nnnc3N2)c1 (stereo not given) | -14.1% | -0.7% | -3.3% | 1.9% | -22.0% | 9.2% | -1.9% | 4.6%
COc1ccc(OC)c(/C=N/NC(=O)Cc2nc3ccccc3[nH]2)c1 | -9.8% | 17.5% | ? | 2µM* | 14.4% | -1.5% | 22.4µM* | -9.0%
COC/C=C/C1=CC2=CC(=O)C(C)(OC(=O)c3cnc4ccccc4n3)C(=O)C2=CN1Cc1ccc(OC)cc1 (stereo not given) | -20.6% | / | / | 6.6% | -2.4%[14.2 µM] | 1.1% | / | -0.7%
O=C(CN1C(=O)NC2(CCCCCC2)C1=O)N1CCN(S(=O)(=O)c2ccc(Cl)cc2)CC1 | ? | -17.8% | -0.5% | 2.0% | 6.4% | 8.7% | 1.7% | -1.5%
Cc1ccc(-n2nc(CN3CCOCC3)c(-c3ccccc3)c2N)c(C)c1 | -9.6% | 3.3% | -10.1% | -5.8% | 7.4% | 2.9% | -2.1% | -3.9%
COc1ccc2c(c1)CCCN2C(N)=Nc1ccc(Cl)cc1 | -18.5% | 0.3% | / | -66.1% | ? | -23.5% | / | -0.3%
COc1ccc(NC(=O)Nc2cc(NC(=O)Nc3ccc(OC)cc3)c(C)nc2C)cc1 | 0.0% | 3.9% | ? | 25.7% | -21.8% | 7.9% | 1.4% | 10.4%
O=C1SC(c2ccccc2)=C/C1=C\N1CCCCC1 | / | 4.6% | -11.6% | -52.7% | 27.9% | 0.3% | -12.7% | -9.8%
Nn1c(SCC(=O)NC2CCCCC2)nnc1C1CC1 | 0.0% | -0.6% | 3.0% | 6.4% | -2.5% | -17.4% | 4.4% | 5.4%
Cc1ccc(Cl)cc1N1CCN(S(=O)(=O)c2ccc3[nH]c4c(c3c2)CCCCC4)CC1 | -21.6% | -0.6%[46.1 µM] | 5.01µM* | / | / | / | -0.1% | /
COc1ccc(CNC(=S)N2CCN(Cc3ccccc3)CC2)cc1 | -15.0% | / | / | ? | / | 18.1% | / | 0.6%
COc1ccccc1NC(=O)CNC(=O)Cn1c(C)cc2ccccc2c1=O | -12.7% | -7.6%[46.1 µM] | / | 10.1% | -18.9%[46.1 µM] | -4.0% | / | 5.2%
COc1ccccc1C(O)P(=O)(OC(C)C)c1ccc(N(C)C)cc1 (stereo not given) | 19.9% | -7.0% | 11.6% | -6.7% | 24.3% | 19.4% | -0.5% | -11.8%
O=C(COc1ccc(F)c(Cl)c1)N1CCCCCCC1 | 9.4% | 12.2%[46.1 µM] | / | 8.8% | 23.8%[46.1 µM] | 7.4% | / | -4.0%
CSc1nnc(-c2ccc(S(=O)(=O)N3CCOCC3)cc2)n1C | 12.2% | 3.8% | / | 0.4% | 3.0%[46.1 µM] | -0.3% | / | 6.9%
COc1ccc(OC)c(NC(=O)Cn2cnc3c(cnn3-c3ccccc3)c2=O)c1 | -17.1% | / | 7.3% | -83.3% | / | -4.6% | -6.3% | 13.6%
CCOC(=O)c1cc(NC(=O)CC(C)(C)CC(=O)O)ccc1N1CCCCC1 | 22.7% | -13.5%[46.1 µM] | / | 1.3% | 12.7%[46.1 µM] | 10.1% | / | -0.1%
N=P(N1CCOCC1)(N1CCOCC1)C12CC3CC(CC(C3)C1)C2 | -5.6% | 0.9% | 25.1µM* | -1.2% | -5.7% | 5.3% | 28.2µM* | -1.0%
CCOc1ccc(NC(=O)CN(c2ccccc2OCC)S(=O)(=O)c2ccccc2)cc1 | 9.2% | ? | -1.1% | / | / | / | -4.4% | /
Cc1cc(Br)ccc1SCC(=O)OCC(=O)NC1CC1 | 4.0% | 5.8%[46.1 µM] | / | / | ? | 3.2% | / | -0.1%
CCOC(=O)C(CCC(=O)O)(CCC(C)C)c1csc(N)n1 (stereo not given) | -16.8% | -2.5% | 1.2% | ? | 7.3% | -14.3% | 2.4% | -9.0%
COc1cccc(NC(=O)Cn2c(=O)n(Cc3ccc(F)cc3)c(=O)c3sc4ccccc4c32)c1 | 0.0% | 1.3%[46.1 µM] | -14.7% | / | 20.2%[46.1 µM] | / | -2.7% | /
OC(CN1CCN(Cc2ccccc2)CC1)c1ccc(Br)cc1 (stereo not given) | -18.3% | -0.2% | / | / | ? | -8.9% | / | /
S=C(Nc1ccc(Cl)cc1)NN1CCOCC1 | -11.6% | 2.8% | -1.9% | 7.0% | ? | -7.3% | -1.7% | 0.6%
C=CCOC(=O)CCCC(=O)NC1CCCCC1 | 3.8% | -0.5% | -4.6% | -0.4% | 24.6%[46.1 µM] | 8.4% | 11.7% | 1.4%
CCS(=O)(=O)c1ncc(N(Cc2ccco2)Cc2sccc2C)c(C(=O)Nc2ccc(C)cc2C)n1 | 0.5% | 2.9%[46.1 µM] | 12.5% | / | ? | / | -3.0% | /
Cc1cc(C)cc(N(CCC(=O)O)S(=O)(=O)c2ccc3ccccc3c2)c1 | 11.0% | 7.8% | ? | 25.8% | 12.5% | 10.7% | -4.6% | -1.6%
COc1cccc(CNC(=O)c2ccc3nc(N4CCCCC4)sc3c2)c1OC | -0.7% | / | 13.2% | / | 2.9%[46.1 µM] | / | -7.3% | /
Cc1ccc(S(=O)(=O)N2CC(O)CC2C(=O)Nc2ccc3c(c2)CCC3)cc1 (stereo not given) | 21.5% | 1.1% | 7.9% | -4.0% | 0.8% | 9.0% | -2.0% | 3.0%
O=C(O)c1nn(-c2ccccc2)c(-c2ccccc2)c1C(=O)c1ccccc1 | 4.8% | ? | 3.1% | 12.1% | -2.7% | 0.4% | -0.7% | 3.5%
O=C(NCc1ccco1)C(=O)NCC1OCCN1C(=O)c1ccc(Cl)cc1 (stereo not given) | 12.4% | 6.6%[46.1 µM] | / | -4.3% | ? | 0.2% | / | 0.0%
COc1cc(/C=N/NC(=O)COc2cc(C)cc(C)c2)ccc1OS(=O)(=O)c1ccc(C)cc1 | ? | ? | -3.8% | ? | ? | 8.3% | -5.6% | 11.7%
Cn1cc(S(=O)(=O)N2CCN(Cc3ccccc3)CC2)c(=O)n(C)c1=O | -13.0% | / | -0.6% | -32.4% | / | 3.6% | -0.4% | -8.4%
COc1cc2ccccc2cc1C(=O)Nc1ccc2oc(-c3cccc(C)c3)nc2c1 | -3.4% | 0.3%[46.1 µM] | -4.0% | / | / | / | 1.8% | /
O=C(NNC(=O)c1nn(-c2ccc(F)cc2)ccc1=O)c1ccccc1Cl | 12.7% | 25.6%[46.1 µM] | / | 1.2% | -11.0%[46.1 µM] | -5.4% | / | -0.4%
O=C1CSC(c2ccc(F)c(F)c2)N1c1ccccc1F (stereo not given) | -8.7% | / | / | 2.1% | / | 5.7% | / | -1.0%
CSc1ccccc1N1CCN(C(=O)Nc2ccc3c(c2)NC(=O)CO3)CC1 | ? | -9.0% | -1.0% | 3.9% | -4.2% | -18.7% | 3.3% | 3.9%

Bioassay records from PubChem.
